Rango dissoc inh: qHTS Assay for Inhibitors of RanGTP induced Rango (Ran-regulated importin-beta cargo) - Importin beta complex dissociation; Biochemical FRET Rango-importin beta, RanGTP-induced dissociation; Potency, µM (titrated, usually from 46.1 µM), for inactives: at the highest dose activity change, negative = inhibition; 340,000 compounds, 0.071% hits; active means falling FRET ratio curve, often poorly fitted, with flat reads before Ran was added; inconclusive means other falling curves, or compound fluorescence or quenching; inactive means flat or rising ratio curve;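 also: potency is read from the fitted curve at half-maximal effect; % of control where 0% means no effect; nearly all actives have a fitted effect of over 45% in size; -100% = wells without RanGTP and RCC1; the record marks most hits as doubtful in a second field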
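Rango (0.1 uM)–importin beta (0.25 uM) complex; RanGTP-RCC1 trigger; 45 min RT; CFP/YFP FRET read.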
miR-21 FLuc: qHTS Assay for Modulators of miRNAs and/orActivators of miR-21 | HeLa miR-21 FLuc reporter, luciferase, 48 h | Potency, µM (titrated, usually from 38.3 µM), for inactives: top-dose reporter change, positive = more light | 340,000 tested, under 10 active; active = well fitted rising curve with a large enough effect; inconclusive = small, poorly fitted or top-dose-only effect; inactive = no such curve, though single readings can be large or run the other way;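 also: % of control where 0% means no effect; miR-21 action dims this reporter so a rising signal means less miR-21 action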
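Using DMEM plus 10% FBS, HeLa miR-21-FLuc cells are incubated with test compounds (final up to about 40uM) for 48 hours; firefly luciferase signal is then imaged following reagent-mediated lysis.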
Rango complex inh: qHTS Assay for Inhibitors of Rango (Ran-regulated importin-beta cargo) - Importin beta complex formation | Importin subunit beta-1 (Homo sapiens), Q14974 | Rango CFP/YFP FRET sensor + importin beta, 45 min | Potency, µM (titrated, usually from 92.2 µM), without a hit: top-dose inhibition of complex formation | 340,000 compounds, 0.031% hits; active = rising FRET ratio curve, often small or poorly fitted; inconclusive = mostly compound fluorescence or quenching in the first reads; inactive = flat curves in all reads;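 also: potency is read from the fitted curve at half-maximal effect; 0% = DMSO wells and 100% = buffer wells lacking importin beta; nearly all actives have a fitted effect of over 15% in size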
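FRET biosensor (snurportin 1 IBB flanked by EYFP and cerulean), 50 nM, with compound 5 min, then 0.125 microM importin beta in PBS, 1 mM DTT, 0.02% Tween-20, 0.1% BSA. CFP/YFP ratio read after 45 min at room temperature; pre-read flags interference.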
GLA inh pH 4.5: qHTS Assay for Inhibitors of Human alpha-Galactosidase at pH 4.5. Alpha-galactosidase A (Homo sapiens), P06280. purified enzyme, 4-MU-alpha-Gal fluorescence, pH 4.5. activity change, negative = inhibition, % at 105 µM. 230,000 tested, under 10 active; inconclusive = small, poorly fitted or top-dose-only inhibition, or a rising curve; inactive = flat fitted curve, though single readings scatter; no compound was filed as active;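 also: 0% = full activity with enzyme and -100% = basal without enzyme; dose as in the result columns while the protocol names 77 µM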
Target sequence (P06280 whole entry, looked up): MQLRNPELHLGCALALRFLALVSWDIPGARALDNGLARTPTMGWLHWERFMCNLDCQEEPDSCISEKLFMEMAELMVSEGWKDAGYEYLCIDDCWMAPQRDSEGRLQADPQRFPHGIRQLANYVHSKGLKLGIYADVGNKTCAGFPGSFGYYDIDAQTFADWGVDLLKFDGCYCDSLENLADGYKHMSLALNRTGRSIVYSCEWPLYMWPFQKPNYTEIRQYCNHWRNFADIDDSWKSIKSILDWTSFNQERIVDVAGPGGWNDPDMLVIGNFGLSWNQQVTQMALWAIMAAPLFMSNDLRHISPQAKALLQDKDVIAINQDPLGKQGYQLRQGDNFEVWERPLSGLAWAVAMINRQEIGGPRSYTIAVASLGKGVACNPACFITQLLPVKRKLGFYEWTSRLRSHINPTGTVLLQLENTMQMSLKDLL
The depositor's hits bear a star; ? = inconclusive; . = not tested or not shown; & = joins results of further samples.

Sample of the layout:
SMILES	Rango dissoc inh	miR-21 FLuc	Rango complex inh	GLA inh pH 4.5
CCc1nnc(NC(=O)c2ccc(S(=O)(=O)N3CCCCC3)cc2)s1	13%	-14%	?	.
Clc1c2c(nc3ccccc13)CCC2	0%	1%	-0.5%	.

All compounds of this part, repeating the preview:
SMILES	Rango dissoc inh	miR-21 FLuc	Rango complex inh	GLA inh pH 4.5
CCc1nnc(NC(=O)c2ccc(S(=O)(=O)N3CCCCC3)cc2)s1	13%	-14%	?	.
Clc1c2c(nc3ccccc13)CCC2	0%	1%	-0.5%	.
CCNC(=O)n1nccc1C(C)Oc1cccc(C(F)(F)F)c1 (stereo not given)	-5%	0%	1.0%	-11
Cc1nc2c(C(=O)N3CCCC3)cnn2c(C)c1Cc1c(F)cccc1Cl	1%	0%	0.6%	1
CNC(=S)/N=C(/Nc1ccccc1)c1ccccc1	3%	-1%	-2.7%	-11
CCOCCCNC(=O)c1cc2cc3cc(OC)ccc3nc2o1	28%	-17%	?	.
Cc1nnc(C)c2c(C)n(N)c(C)c12	22%	1%	?	-2
Cc1csc(NC(=O)C(NC(=O)c2ccccc2F)C(C)C)n1 (stereo not given)	5%	-3%	-0.1%	-5
Cc1cc(/C=C(\C#N)C(=O)O)c(C)n1-c1ccc(Br)cc1	0%	-26%	-1.9%	0
O=C(OCc1cc2ccccc2[nH]c1=O)c1cccnc1	3%	-4%	0.0%	-8
CCCN(CCC)C(=S)NC(=O)c1ccc(-c2ccccc2)cc1	-18%	13%	6.7%	-13
CCOC(=O)/C=c1\s/c(=C\c2sccc2C)c(=O)n1CC(=O)NCc1ccc(C)cc1	.	-1%	.	9
COc1cc2ccccc2cc1C(=O)OCC(=O)N(C)c1c(N)n(Cc2ccccc2)c(=O)[nH]c1=O	-3%	.	0.1%	.
COc1ccc(NC2CCCN(C(=O)CCC3=NNC(=O)CC3)C2)cc1 (stereo not given)	3%	-1%	-0.3%	.
O=C(Nc1ccc(O)cc1)C1CCCN1S(=O)(=O)c1ccc(F)cc1 (stereo not given)	2%	-10%	0.5%	7
O=C(NCc1n[nH]c(=S)n1-c1ccc(Br)cc1)c1cccs1	-6%	-7%	5.0%	3
COC(=O)c1sc2cc([N+](=O)[O-])cc(SCC(C)C)c2c1N	1%	-2%	?	0
CN(Cc1ccc2nsnc2c1)Cc1nc(Cc2cccc(F)c2)no1	2%	1%	1.3%	-1
CCCn1nnnc1NCc1ccc(CC)cc1	-16%	2%	?	.
Oc1cccc(/C=N/NC(=S)NCCN2CCOCC2)c1O	8%	-11%	4.9%	-3
CC[C@]1(C(=O)OC)[C@H]2C(=O)N(C)C(=O)[C@H]2[C@H]2CN=C(SCc3ccc(C)cc3)N21	0%	.	-1.4%	.
CCCC(=O)Nc1cc(-c2nn(C)c(=O)c3ccccc23)ccc1N1CCCCC1	5%	.	-2.7%	.
CCOc1ccc(OCC)c(NC(=O)CCNS(=O)(=O)c2cc(Br)cnc2N)c1	-2%	4%	-1.1%	.
O=C(N=C1SC2CS(=O)(=O)CC2N1CCc1ccccc1)C1CCCCC1 (stereo not given)	9%	-1%	-3.0%	.
Cc1ccc(Sc2ncccc2NC(=O)c2ccccc2Cl)cc1	7%	-17%	-4.0%	-18
c1ccc(CC2CCN(c3nc4ccccc4n4nnnc34)CC2)cc1	-6%	-8%	-1.1%	7
Cn1c(N)c(C(=O)COC(=O)Cc2c(F)cccc2Cl)c(=O)n(C)c1=O	1%	.	-0.2%	.
O=C(/C=C/c1ccco1)N1CCCC(c2ccccc2)C1 (stereo not given)	-10%	-21%	-2.9%	8
NC(=O)C(=CNc1nc(-c2ccc(Cl)c(Cl)c2)cs1)C(N)=O	.	-9%	.	0
Cc1nc(N2CCN(c3ccccn3)CC2)c2c(C)c(C(=O)N3CCN(c4ccccc4F)CC3)sc2n1	0%	3%	4.3%	.
Cc1ccc(C(=O)c2sc3nc4c(cc3c2N)CCC4)cc1	?	-59%	?	-5
CC(C)Oc1cc(C(=O)N2CCC(N3CCCCC3)CC2)ccc1Nc1nnc(Cl)c(Nc2ccccc2S(C)(=O)=O)n1	6%	.	6.1%	.
CCCNC(=O)c1ccccc1NS(=O)(=O)c1ccc2c(c1)OCCO2	12%	4%	3.6%	-5
C#CCOCCOCCOCCNc1nc(N2CCN(C(=O)[C@H](CCC(=O)O)n3cc(C(N)CO)nn3)CC2)nc(N2CCN(C(=O)[C@H](Cc3ccc(O)cc3)n3cc(C(N)CC(C)C)nn3)CC2)n1 (stereo not given in full)	.	1%	.	3
Cc1cccc(NC(=S)NCCc2ccc3c(c2)OCCO3)c1C	-11%	0%	-0.8%	-6
CCN(Cc1cc2ccccc2[nH]c1=O)C(=O)c1cccnc1	-12%	-6%	-3.0%	2
CC(=O)Nc1ccc(OCc2nnc(-c3ccccc3)o2)cc1	-8%	-26%	-2.2%	.
COC(=O)c1cc(NC(=O)CN2CCc3cc4c(cc3C2)OCCCO4)cc(C(=O)OC)c1	2%	-1%	-1.4%	.
CCN(C(=O)C1CCN(c2nc(-c3ccc(OC)cc3)no2)CC1)c1ccccc1	11%	19%	0.2%	.
COC(=O)c1ccc(C23CC4(C2)[C@H](CN(CC2CCCCC2)[C@@H]4c2ccccc2)C3c2ccccc2)cc1 (stereo not given in full)	-14%	-6%	4.7%	-11&0
Cc1ccsc1C(=O)Nc1ccc2c(c1)OCCO2	-17%	-21%	1.0%	6
CCOc1ccc(CCNC(=O)CN2C(=O)CCSc3ccccc32)cc1OCC	-6%	-9%	0.4%	.
CN1CCc2c(sc3c2c(=O)n(-c2ccccc2)c2nncn32)C1	-12%	2%	0.1%	-1
CNC(=O)c1cc(Nc2nnc(C)c3ccccc23)ccc1OC	1%	-15%	0.9%	13
COc1nc(Nc2cccc(C)c2)nc(N2CCCCC2)n1	4%	-16%	-2.5%	-6
CC(Oc1ccccc1)C(=O)N=C1SC2CS(=O)(=O)CC2N1CCc1ccccc1 (stereo not given)	3%	-1%	0.0%	.
CC(=O)NCCc1nc2ccccc2n1CCOc1ccc(C)cc1	?	-12%	3.9%	-5
Cc1cc(C)nc(NC2=NCC(=O)N2c2cc(Cl)cc(Cl)c2)n1	2%	-6%	0.3%	2
CC(=O)Nc1ccc(NC(=O)C2CCN(C(=O)NC3CCCCC3)CC2)cc1	-11%	-2%	1.1%	.
COCCCNC(=S)N/N=C/c1ccc2ccccc2c1	1%	-5%	0.6%	-21
(listing goes on)
SMILES	Rango dissoc inh	miR-21 FLuc	Rango complex inh	GLA inh pH 4.5
CC(Sc1nnc(-c2ccccc2F)n1C1CC1)C(=O)N1CCCC1 (stereo not given)	-1%	.	6.0%	.
COc1ccc(-n2cc(C(=O)c3ccccc3O)cn2)cc1	0%	17%	0.7%	-8
COc1ccccc1C(=O)NN(C)C1=NS(=O)(=O)c2ccccc21	0%	2%	-1.1%	.
CCN(CC)CCCN(C(=O)c1ccc(Br)cc1)c1nc(-c2ccc(OC)cc2)cs1	-26%	22%	-3.5%	.
CCCn1c2c(c(O)c(C(=O)NCc3ccccc3)c1=O)CCCC2	0%	-4%	1.0%	7
O=C(CCc1nc2ccccc2s1)N1CCN(c2ccccc2)CC1	2%	2%	0.3%	9
Cc1ccc(C(C)(C)C)c(OCCCn2ccnc2)c1	1%	-9%	1.1%	-5
CC(=O)OCCCNc1cc(Sc2ccc(Cl)cc2)c2nonc2c1[N+](=O)[O-]	-11%	-20%	-3.8%	5
CCCOc1ccc(CNC(=O)c2ccc3nc(N4CCOCC4)sc3c2)cc1	28%	-4%	-6.8%	.
CS(=O)(=O)N1CCC(C(=O)Nc2ccc(C(F)(F)F)cc2)CC1	0%	1%	-0.9%	1
CCC(C)C(=O)N1CCCC(c2nc(-c3cccs3)no2)C1 (stereo not given)	-13%	-48%	2.5%	2
CCCCNC(=O)C(C#N)c1nc2ccccc2nc1N1CCN(Cc2ccc3c(c2)OCO3)CC1 (stereo not given)	?	.	?	.
Cc1ccc(OCCCC(=O)NC(C)c2ccccc2)cc1 (stereo not given)	-3%	0%	-2.2%	-10
CCOC(=O)C1=C(CC)Nc2ccccc2N=C1NC(=O)c1ccc(S(=O)(=O)N(C)C)cc1	-3%	7%	1.8%	7
Cc1ccc(Cc2nc(-c3ccncc3)no2)cc1	15%	-24%	?	-10
COc1ccc(C2(NC(C)=O)CCN(C(=O)c3cccs3)CC2)cc1	2%	-5%	5.8%	-1
O=C(c1ccco1)N1CCN(CC(=O)N(C2CCCCC2)C2CCS(=O)(=O)C2)CC1 (stereo not given)	7%	1%	-1.9%	3
O=C(CSc1cccc[n+]1[O-])Nc1ccc([N+](=O)[O-])cc1Cl	-4%	-2%	-5.2%	7
Cc1ccc(C(=O)CCC(=O)Nc2cc(C)ccn2)cc1	-18%	.	?	.
Cc1ccc(S(=O)(=O)NCCC(=O)N2CCC(C(N)=O)CC2)cc1C	16%	.	4.3%	.
NC(=O)c1ccccc1OC1CCC1	9%	0%	-7.0%	2
CCn1cc(S(=O)(=O)Nc2ccc3c(c2)OCCO3)cn1	-12%	-34%	0.5%	4
CCCCN(CC(=O)NC(C)(C)C)C(=O)C(=O)Nc1ccc2c(c1)OCCO2	-9%	-1%	-3.9%	-19
CC(=O)N(CCC1(C(C)C)CCOC(C)(C)C1)Cc1ccco1 (stereo not given)	-9%	-5%	-0.4%	.
COc1ccc(C(=O)NCC(=O)Nc2ccc(-c3ccccc3)cc2)cc1	-6%	-12%	-3.0%	.
O=S(=O)(c1ccc(Cl)nc1)N1CCCCC1	17%	-1%	4.0%	.
CC[C@@]1(C(=O)OC)N[C@H](CN(C)C(=O)Nc2ccc(C)cc2)[C@@H]2C(=O)N(Cc3ccccc3)C(=O)[C@@H]21	10%	.	-5.4%	.
Cc1cccc(C)c1NC(=O)CCCSc1nc2ccccc2s1	2%	-6%	0.5%	-3
CCOC(=O)C(=CNc1ccc(N2CCCCC2)c(S(=O)(=O)Nc2ccccc2OC)c1)C(=O)OCC	-6%	.	?	.
COc1ccc(N(CC(=O)Nc2ccccc2C(F)(F)F)C2=NC3CS(=O)(=O)CC3S2)cc1 (stereo not given)	-1%	15%	3.1%	.
N#C/C(=C\c1c(F)cccc1Cl)c1nn(-c2ccccc2)c(-n2cccc2)c1C#N	12%	-2%	-2.8%	-5
COC(=O)c1ccc(CNC(=O)CSC(C)C(=O)Nc2cc(C)on2)cc1 (stereo not given)	10%	.	0.2%	.
Cc1cc(C)c(C#N)c(Cl)n1	2%	-6%	-0.9%	-3
O=C(c1cccc(S(=O)(=O)N2CCOCC2)c1)N(CCc1ccccc1)Cc1ccccc1	-1%	.	5.6%	.
Cn1c2c(c(=O)n(C)c1=O)C(C(F)(F)F)(C(F)(F)F)N=C(CCC1CCCCC1)N2	-6%	?	-1.2%	-11
CCc1cccc(OCCCn2ccnc2)c1	13%	-5%	1.0%	3
O=C(NCc1nc2ccccc2[nH]1)C1=C[C@@H](C2CC2)C[C@@H](OCc2ccc(CO)cc2)O1	20%	1%	0.4%	-2
N#Cc1c(NC(=O)COC(=O)c2ccc(S(=O)(=O)N3CCCC3)cc2)sc2c1CCCCC2	1%	1%	-3.2%	3
Cc1ccc(NC(=O)C(=O)Nc2ccccn2)cc1	-9%	-36%	1.3%	-1
CCOC(=O)Cc1nnc(NC(=O)c2ccco2)s1	1%	-10%	-4.0%	-5

Compound profiles, as listed above. Order of screens: Rango dissoc inh | miR-21 FLuc | Rango complex inh | GLA inh pH 4.5
O=C(NCc1nc2ccccc2[nH]1)C1=C[C@@H](C2CC2)C[C@@H](OCc2ccc(CO)cc2)O1 is listed as 20% | 1% | 0.4% | -2
Cn1c2c(c(=O)n(C)c1=O)C(C(F)(F)F)(C(F)(F)F)N=C(CCC1CCCCC1)N2 is listed as -6% | ? | -1.2% | -11
O=C(c1cccc(S(=O)(=O)N2CCOCC2)c1)N(CCc1ccccc1)Cc1ccccc1 is listed as -1% | . | 5.6% | .
N#Cc1c(NC(=O)COC(=O)c2ccc(S(=O)(=O)N3CCCC3)cc2)sc2c1CCCCC2 is listed as 1% | 1% | -3.2% | 3
CCOC(=O)Cc1nnc(NC(=O)c2ccco2)s1 is listed as 1% | -10% | -4.0% | -5

An excerpt (hit frequency here may not be typical).
